VACV mCherry inh: qHTS for Stage-Specific Inhibitors of Vaccinia Orthopoxvirus: mCherry Reporter Primary qHTS. Potency, µM (series often up to 36.5 µM), for inactives: at the highest dose activity change, negative = inhibition, actives largely listed as inhibitors. AID 720579, 2013. Vaccinia virus mCherry reporter infection, fluorescence; about a quarter of the inactives have no number. 310,000 compounds, 0.63% hits; active = well fitted inhibition curve with a large enough effect; inconclusive = small, poorly fitted or top-dose-only effect; inactive = no such curve, though single readings can be large or run the other way; tested in A549 cells; note: nearly all actives have a fitted effect of over 35% in size; inactives centre near -10
Vaccinia Venus: qHTS for Stage-Specific Inhibitors of Vaccinia Orthopoxvirus: Venus Reporter Primary qHTS. 330,000 compounds, 0.46% hits. Potency, µM (series often up to 36.5 µM), without a hit: at the top dose activity change, negative = inhibition, usual class: inhibitors. Vaccinia virus Venus reporter expression, fluorescence; active means well fitted inhibition curve with a large enough effect; inconclusive means small, poorly fitted or top-dose-only effect; inactive means no such curve, though single readings can be large or run the other way; tested in A549 cells; note: nearly all actives have a fitted effect of over 30% in size; inactives centre near -10
Starred values were filed as active, the others as inactive; i = inactive; ? = inconclusive; . = not tested or not shown; [ ] = another dose, or the depositor's remark. % is set by controls: 0 for no effect and ±100 for the full control effect; potency is the fitted concentration of half-maximal effect.

Values run as follows: VACV mCherry inh | Vaccinia Venus
O=C(OCC(=O)C12CC3CC(CC(C3)C1)C2)c1ccc(O)cc1O
  -27% | -20%
C=CCn1c(SCc2nc3sc(C(=O)O)c(C)c3c(=O)[nH]2)nnc1-c1ccc(C(C)(C)C)cc1
  i | 7%
CC(C)c1ccc(NC(=O)C2CCN(S(=O)(=O)c3cccc4nonc34)CC2)cc1
  -1% | -10%
COc1cccc(-c2nn(-c3ccccc3)cc2/C=C\C(=O)c2cccs2)c1
  . | -7%
NNC(=O)CSc1nnc(-c2ccccc2)n1-c1ccccc1
  -21% | -14%
O=C(NNc1ccccc1[N+](=O)[O-])Nc1ccc(Cl)c(Cl)c1
  i | -17%
COC(=O)CNC(=O)c1ccccc1F
  i | -13%
CCOC(=O)c1ccc(NC(=O)c2cccc(C)c2[N+](=O)[O-])cc1
  i | -10%
Cc1cccc(N2CCN(Cc3cnc(Cl)s3)CC2C)c1 (stereo not given)
  -10% | -7%
O=C(COc1ccc(S(=O)(=O)N2CCOCC2)cc1)NCCc1ccccc1
  -3% | -4%
CC1(C(=O)OCC(=O)Nc2nnc(-c3ccccc3)o2)CC1(Cl)Cl (stereo not given)
  -28% | -23%
O=C(NC1CCN(Cc2ccccc2)CC1)c1ccccc1NS(=O)(=O)c1ccc(F)cc1
  ? | -20%
COc1ccc(-c2cc([C@H]3[C@@H]4C=CCC[C@@]4(C)C(=O)N3Cc3ccccc3)ccc2F)cc1OC
  0% | ?
Cn1cnc(S(=O)(=O)N2CCCCC2c2cc(C(=O)Nc3cccc(C#N)c3)no2)c1 (stereo not given)
  10% | -3%
CCC(=O)Nc1c(S(=O)(=O)c2ccc(C)cc2)c2nc3ccccc3nc2n1C(C)c1ccccc1 (stereo not given)
  -22% | -22%
CC(=O)C1CCC2C3C(N4CC4)CC4=CC(=O)CCC4(C)C3CCC12C (stereo not given)
  -28% | -9%
CC(C)C[C@H]1C(=O)N2CCC[C@H]2[C@]2(O)O[C@](NC(=O)C3C=C4c5cccc6[nH]c(Br)c(c56)C[C@H]4N(C)C3)(C(C)C)C(=O)N12 (stereo not given in full)
  -15% | -29%
COCCN(C(=O)Cc1coc2cc(C)c(C)cc12)c1c(N)n(Cc2ccccc2)c(=O)[nH]c1=O
  -22% | -16%
CC1CCCC(C)N1C(=O)COC(=O)c1ccc2c(c1)OCO2 (stereo not given)
  . | -5%
N=c1n(CC(=O)c2ccc(Br)cc2)c2ccccc2n1Cc1ccccc1
  ? | 11µM*

2 of the compounds above, as labelled records:
C=CCn1c(SCc2nc3sc(C(=O)O)c(C)c3c(=O)[nH]2)nnc1-c1ccc(C(C)(C)C)cc1
  VACV mCherry inh: i
  Vaccinia Venus: 7%
CC(C)c1ccc(NC(=O)C2CCN(S(=O)(=O)c3cccc4nonc34)CC2)cc1
  VACV mCherry inh: -1%
  Vaccinia Venus: -10%

The list continues:
Values run as follows: VACV mCherry inh | Vaccinia Venus
CN(C)C(=O)c1nc2ccc(Cl)cn2c1CNCc1ccccc1OC(F)(F)F
  -9% | -5%
COc1ccc(C2=CC(=O)C[C@H](COCc3ccccc3)N(C(=O)OC(C)(C)C)O2)cc1
  ? | ?
CCCn1c(=O)c2sccc2n2c(CCCC(=O)NCCc3ccc(Cl)cc3)nnc12
  -13% | -12%
Cn1ccnc1SCc1cn2cc(Br)ccc2n1
  . | -9%
Cc1ccc(Cl)cc1NS(=O)(=O)c1ccc(N2CCCCS2(=O)=O)cc1
  -20% | -20%
CCc1cc2c(=O)c(-c3cscn3)coc2cc1O
  . | -7%
CCOC(=O)c1ccc(N2CCOCC2)c(NC(=O)COCC(=O)O)c1
  -1% | -12%
Cc1cc(C(=O)CSc2nc(N)cc(N)n2)c(C)n1CCc1ccc(F)cc1
  ? | ?
CCOc1ncccc1C(=O)OCC(=O)c1c(N)n(C)c(=O)n(C)c1=O
  . | 4%
CCOC(=O)c1ccc(NC(=S)N2CCSC2c2ccc(Cl)cc2)cc1 (stereo not given)
  -25% | -15%
Cc1ccc(C)c(N2C(=O)c3cc(N4CCOCC4)c([N+](=O)[O-])cc3C2=O)c1
  i | -11%
Cc1cccc(NC(=S)N2CCOCC2)c1C
  i | -8%
CC1(c2cccc(Br)c2)NC(=O)NC1=O (stereo not given)
  -12% | -14%
CCOC(=O)C1=CN(Cc2cccc(F)c2)S(=O)(=O)N(C)C1c1ccc(C(F)(F)F)cc1 (stereo not given)
  -21% | -16%
COc1cccc(/C=C/C(=O)OCC(=O)NCC2CCCO2)c1OC (stereo not given)
  i | -8%
CN1c2cccc3cccc(c23)N(C)C1c1cccs1
  -5% | -3%
COc1ccc(N2C(=O)c3ccccc3NC23CCCCC3)cc1
  -25% | -12%
Cc1ccc(-c2nsc(SCC(=O)Nc3ccc4c(c3)OCO4)n2)cc1
  -28% | -24%
Cc1[nH]c2ccccc2c1/C=N/NC(=O)CNC(=O)c1ccc2c(c1)OCCO2
  -18% | 0%
CCOc1ccc(-n2c(=O)c3c(C)c(C(=O)N(C)C)sc3n(CC(=O)Nc3ccccc3F)c2=O)cc1
  0% | -5%
Cc1c(Cl)cccc1NC(=S)NNS(=O)(=O)c1ccc([N+](=O)[O-])cc1
  10µM* | ?
Cc1cc(C)c(NC(=O)Cn2nnc(-c3nc(-c4ccncc4)no3)c2N)c(C)c1
  -3% | -9%
CCOC(=O)c1noc2nc(C)n(CC(=O)Nc3cccc(OC)c3)c(=O)c12
  -12%[7.34 µM] | -14%[7.34 µM]
CC(CC(=O)Nc1ccc(Cl)c([N+](=O)[O-])c1)c1ccccc1 (stereo not given)
  -25% | -26%
CCOc1ccc(N(CC(=O)Nc2ccc(OC)cc2)S(C)(=O)=O)cc1
  . | -14%
O=c1c2c(-c3ccc(Cl)cc3)csc2nc2n1CCC2
  -25% | -21%
O=C(Nc1ccc2nc(SCC(=O)N3CCOCC3)sc2c1)c1ccc(Cl)cc1
  ? | ?
Cc1ccc(/C=N/N=C/c2ccc(C)cc2)cc1
  -10% | -5%
CC(C)c1c(C(=O)NCCN2CCOCC2)cnn1-c1nccc(-c2ccco2)n1
  -3% | 0%
O=C(CN1CCN(c2ccc(Cl)cc2)CC1)NCc1ccccc1
  -24% | -21%
N#CC(Cc1cc2ccccc2n1S(=O)(=O)c1ccccc1)OCc1ccccc1 (stereo not given)
  -6% | -14%
CNC(=O)C1CCC(Cn2c(=O)c3sccc3n(CC(=O)Nc3ccc(C)c(C)c3)c2=O)CC1 (stereo not given)
  ? | ?
CCOCCCNC(=O)C(NC(=O)C1CCC(=O)N1)c1ccc(C)cc1 (stereo not given)
  -5% | 6%
COc1ccc(NC(=O)CN(C)C(=O)c2cccc(S(=O)(=O)Nc3ccccc3Cl)c2)cc1
  i | -15%
CCC(C)NS(=O)(=O)c1ccc(S(=O)(=O)Nc2cc3c(cc2C(C)=O)OCO3)cc1 (stereo not given)
  -29% | -9%
COc1cccc(-n2cc(CNC(=O)C3CCC(=O)N(C4CC4)C3)cn2)c1 (stereo not given)
  -14% | -11%
COc1cc(CNn2cn[nH]c2=S)cc(Cl)c1OCc1ccccc1
  ? | ?
O=C(NCc1cccnc1)C1CC(=O)N(C2CCCCC2)C1 (stereo not given)
  -14% | -4%
COc1ccc(OC)c(NC(=S)N2CCC(C(O)(c3ccccc3)c3ccccc3)CC2)c1
  i | -10%
O=C(CSc1nc(-c2ccco2)cc(C(F)(F)F)n1)N1CCCc2ccccc21
  . | 5%

The closing two records of the section above lead into the next.
Values run as follows: VACV mCherry inh | Vaccinia Venus
COc1ccc(OC)c(NC(=S)N2CCC(C(O)(c3ccccc3)c3ccccc3)CC2)c1
  i | -10%
O=C(CSc1nc(-c2ccco2)cc(C(F)(F)F)n1)N1CCCc2ccccc21
  . | 5%
Cc1nc(N)nc2c1CCCC2
  . | 0%
CCOc1cc(NC(=S)NCC2CCCO2)c(OCC)cc1NC(=O)c1cccc(F)c1 (stereo not given)
  -20% | -9%
NS(=O)(=O)c1cccc(NC(=O)COC(=O)CC2CC3CCC2C3)c1 (stereo not given)
  -10% | -9%
Cc1cc(S(=O)(=O)NCc2ccccc2)ccc1OCC(=O)N1CCN(C)CC1
  -1% | -12%
COCCN1CCN(C(=O)c2cc(COc3cncc(Cl)c3)on2)CC1
  i | -9%
Cc1ccc(C)c(NC(=O)CN(C)C(=O)c2cccc(S(=O)(=O)N3CCN(Cc4ccccc4)CC3)c2)c1
  -3% | -16%
O=Cc1cn(Cc2ccccc2[N+](=O)[O-])c2ccccc12
  -14% | 0%
COc1ccc(S(=O)(=O)NCc2ccc(C(=O)N(C)Cc3ccco3)cc2)cc1
  -23% | -14%
COc1cc(/C=C(\NC(C)=O)C(=O)Nc2ccc(NC(C)=O)cc2)ccc1OC(C)=O
  -7% | -13%
CSc1cccc(NC(=S)N(CCCN2CCCC2)Cc2cccs2)c1
  -5% | -15%
N#C/C(C(=O)Oc1ccccc1)=C1\C=Cc2ccccc2N1
  -24% | ?
NNS(=O)(=O)c1ccc(Cc2ncc(C(F)(F)F)cc2Cl)s1
  -4% | -9%
COc1ccc(Oc2c(Cl)cnn(-c3ccccc3)c2=O)cc1
  . | -6%
CCSC1=NN2CCS(=O)(=O)N=C2S1
  11% | 0%
O=S(=O)(c1ccccc1)N1CC1c1ccccc1 (stereo not given)
  -17% | -12%
Cc1ccc(C(=O)OCC(=O)NC2CCCCC2)s1
  -2% | 0%
Cc1ccc(NC(=O)[C@@H](NC(=O)N2C[C@H]3C[C@@H](C2)c2cccc(=O)n2C3)C(C)C)cc1
  -1% | 2%
C=CCn1c(O)c(N=Nc2ccccc2[N+](=O)[O-])c2ccccc21
  -22% | ?
Cc1[nH]c2ccccc2c1Cc1n[nH]c(=S)o1
  -2% | -10%
Cc1cccc(C(=O)OCCN2CCOCC2)c1
  -11% | 0%
O=C1c2ccccc2S(=O)(=O)c2cc(C(=O)N3CCCC3)ccc21
  -14% | -3%
CC(C)(CC(=O)O)CC(=O)Nc1ccccc1Oc1ccccc1
  -8% | -4%
O=C(CSc1nc2ccc(Nc3nc(N4CCOCC4)nc(N4CCOCC4)n3)cc2s1)NCc1ccco1
  i | -25%
Cc1ccc(Sc2ccc(N3CCC(C(=O)Nc4ccc(Cl)cc4)CC3)nn2)cc1
  6% | -13%
CC(C)CCNC(=O)c1ccc2c(SCC(=O)O)c3c(nc2c1)CCCC3
  -15% | -13%
S=c1nc(-c2cccc(Cl)c2)[nH][nH]1
  -3% | -7%
CNC(=O)C1(C)C=CCN1C(=O)c1ccccc1 (stereo not given)
  i | 1%
Cc1cccc(N=c2oc3cc(O)ccc3cc2C(N)=O)c1
  -22% | ?
Cc1cccc(N2C(=O)N(CC(=O)C(C)(C)C)c3ccccc3S2(=O)=O)c1C
  -2% | -1%
Cc1cccc(/C=N/n2c(C)nnc2C)c1
  . | -1%
CN(C)C1CN(Cc2cn(Cc3ccccc3)nn2)S(=O)(=O)C1 (stereo not given)
  22% | 1%
COC(=O)[C@@]12C[C@@H](CC(=O)NCCC(C)C)C(=O)N(Cc3ccco3)C1=CCC(C)(C)C2
  -24% | -20%
COc1ccc(S(=O)(=O)Nc2ccc3c(c2)C(=O)N([C@H](C)CO)C[C@H](C)[C@@H](CN(C)S(=O)(=O)c2ccccc2)O3)cc1
  -5% | -17%
COc1ccc(CNC(=O)C(C)n2ccc3cc(S(=O)(=O)N4CCCC4)ccc32)cc1OC (stereo not given)
  -17% | -15%
COc1ccc(-n2c(=S)[nH]c3cc(C(=O)Nc4ccccc4OC)ccc3c2=O)c(OC)c1
  i | -14%
CCc1ccccc1NS(=O)(=O)c1ccc2c(c1)OCC(C(=O)N1CCCC1)O2 (stereo not given)
  -4% | -13%
COc1ccc(-c2cc(C(C)=O)c(C)n2CCC(=O)NCc2ccc(F)cc2)cc1
  -14% | -5%
N#CCCN(C(=S)NC(=O)c1ccco1)c1ccccc1F
  -5% | -2%
CCCS(=O)(=O)NC(=O)C1(C)CCN(C(=O)c2c(F)ccc(C)c2F)C1 (stereo not given)
  27% | -16%
CC(Cn1nnc2ccccc21)C(=O)O (stereo not given)
  i | -14%
COc1ccccc1NC(=O)c1sc2nc(C)c(C(=O)Nc3ccc(Cl)cc3)c(-c3ccc(Br)cc3)c2c1N
  6% | -5%
CC12C(=O)N(c3ccccc3C(=O)O)C(=O)C1C1C=CC2C1 (stereo not given)
  -4%[1.46 µM] | -16%
CCOC(=O)c1cnc2c(-c3cccc(Br)c3)cnn2c1C
  i | -14%
O=S1(=O)CC(N2CCN(c3ccccn3)CC2)CN1C1CCCCC1 (stereo not given)
  10% | -11%
Cc1ccc(C)c(C(O)c2ncc(-c3ccc(F)cc3)[nH]2)c1 (stereo not given)
  -19% | -3%
O=c1[nH]n2c(C(F)(F)F)cc(C3CC3)nc2c1N=Nc1ccccc1
  i | -3%
CN(C)CCNC(=S)Nc1ccccc1C(C)(C)C
  -15% | -7%
CCCc1nnc(NC(=O)Cc2coc3ccc(C)cc23)s1
  4% | -1%

Screens deposited in PubChem BioAssay by National Center for Advancing Translational Sciences (NCATS).
